HIV Env fusion: inhibitors of HIV-1 Env-driven cell-cell fusion, primary screen, HeLa-JRFL effector, CEM21 target cells, luciferase; inhibition, % at 12.3 µM; actives 1.1% (n = 360,000);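 active means mean replicate inhibition score of at least 50 and every replicate individually at or above 50; inconclusive means only one of the two criteria met; inactive means mean below 50 and not all replicates reaching 50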;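 further: 0% = plate neutral controls and 100% = maraviroc near 300 nM; one replicate is shown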
Yeast UUG start: modulators of yeast start codon fidelity, primary screen, whole organism, S. cerevisiae, single point, plate reader | S. cerevisiae UUG-firefly luciferase reporter, luminescence/redox ratio | activity score, % at 18.7 µM | actives 0.13% (n = 350,000) | AID 602363, 2012;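 active means replicate mean at a twofold rise or more, about +100% in these data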;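 further: firefly luciferase made from a UUG start codon reports start codon fidelity; reporter light over untreated wells divided by growth signal over untreated wells; some hits fall short of that in this replicate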
The depositor's hits bear a star; ? = inconclusive; [ ] = dose if it differs, or a comment. Only part of the results is shown. The share of hits here may be higher or lower than overall.

SMILES | HIV Env fusion | Yeast UUG start
C[C@@H]1CCCCO[C@H](CN(C)C(=O)Nc2ccc(F)cc2)[C@H](C)CN([C@@H](C)CO)C(=O)c2cc(NC(=O)Nc3ccc(F)cc3)ccc2O1 | -81.3[16.7 µM] | -7.2
O=C(C[C@H]1CC[C@@H]2[C@H](COC[C@H](O)CN2CCC(F)(F)F)O1)N1CCC(Cc2ccccc2)CC1 | -4.6[16.7 µM] | 9.9
CO[C@H]1CN(C)C(=O)c2ccc(NC(=O)Nc3cc(F)ccc3F)cc2OC[C@H](C)NC[C@H]1C | -5.8[16.7 µM] | 12.7
COc1ccc(S(=O)(=O)Nc2ccc3c(c2)C(=O)N([C@@H](C)CO)C[C@@H](C)[C@H](CN(C)S(=O)(=O)c2cn(C)cn2)O3)cc1 | ? | -5.1
COc1ccc(NC(=O)Nc2cccc3c2O[C@@H](CN(C)S(=O)(=O)c2ccc(C)cc2)[C@@H](C)CN([C@H](C)CO)C3=O)cc1 | -7.3[16.7 µM] | 8.8
C[C@@H]1CN([C@H](C)CO)C(=O)c2cc(NC(=O)Nc3ccc(F)cc3)ccc2O[C@H]1CN(C)Cc1ccc(Cl)c(Cl)c1 | 4.1[16.7 µM] | 1.5
C[C@@H]1CN([C@@H](C)CO)C(=O)c2cccc(NC(=O)C3CCOCC3)c2O[C@H]1CN(C)Cc1ccc(C(=O)O)cc1 | -2.6[16.7 µM] | -7.3
C[C@H](CO)N1C[C@H](C)[C@@H](CN(C)C(=O)NC2CCCCC2)OCCCC[C@H](C)Oc2ccc(NS(=O)(=O)c3ccccc3)cc2C1=O | -48.4[16.7 µM] | 6.8
COc1cccc(-c2ccc3c(c2)O[C@H](CN(C)C(=O)C2CC2)[C@H](C)CN([C@H](C)CO)S3(=O)=O)c1 | 3.3[16.7 µM] | 2.2
COc1ccc(CN(C)C[C@H]2Oc3c(NC(=O)C4CCCCC4)cccc3C(=O)N([C@H](C)CO)C[C@@H]2C)cc1 | 6.5[16.7 µM] | 8.4
COc1ccc(C(=O)Nc2ccc3c(c2)OC[C@@H](C)N(C)C[C@H](C)[C@H](OC)CN(C)C3=O)cc1 | 1.7[16.7 µM] | 2.7
O=C(CN1CCOCC1)NCC[C@@H]1CC[C@H](NC(=O)Cc2ccccn2)[C@@H](CO)O1 | -14.2[16.7 µM] | 1.5
Cc1ccc(S(=O)(=O)Nc2ccc3c(c2)C(=O)N([C@@H](C)CO)C[C@H](C)[C@@H](CN(C)S(=O)(=O)c2ccccc2)O3)cc1 | 17.5[16.7 µM] | -2.6
CCCN(C)C[C@@H]1Oc2ncc(-c3ccccc3OC)cc2C(=O)N([C@H](C)CO)C[C@H]1C | 17.9[16.7 µM] | 11.2
CNC(=O)C[C@H]1CC[C@H]2[C@H](COc3ccc(NC(=O)c4ccc(F)cc4)cc3C(=O)N2C)O1 | -1.1[16.7 µM] | 3.2
C[C@H](CO)N1C[C@H](C)[C@H](CN(C)C(=O)NC2CCCCC2)Oc2cc(C#Cc3cccc(F)c3)ccc2S1(=O)=O | 25.0[16.7 µM] | -5.1
Cc1noc(C)c1NC(=O)Nc1ccc2c(c1)C(=O)N([C@H](C)CO)C[C@@H](C)[C@@H](CN(C)S(=O)(=O)c1ccc(F)cc1)OCCCC[C@H](C)O2 | 4.6[16.7 µM] | -7.0
CCC(=O)N(C)C[C@H]1Oc2ncc(-c3ccc(F)cc3)cc2C(=O)N([C@@H](C)CO)C[C@@H]1C | 3.6[16.7 µM] | -7.2
CCCC#Cc1ccc([C@H]2[C@@H](CO)N(S(=O)(=O)c3cccc(F)c3)[C@H]2C#N)cc1 | -28.2[16.7 µM] | 4.5
C[C@H]1CN([C@@H](C)CO)C(=O)c2cc(-c3ccncc3)cnc2O[C@@H]1CN(C)C(=O)c1ccncc1 | -8.7[16.7 µM] | -16.7
C[C@@H]1CN([C@@H](C)CO)C(=O)c2cccc(NC(=O)Nc3ccc4c(c3)OCO4)c2O[C@@H]1CN(C)C(=O)Nc1ccc2c(c1)OCO2 | 48.2[16.7 µM] | 1.8
O=C(Nc1ccccc1F)N[C@@H]1CC[C@H](CCNC(=O)C2CCOCC2)O[C@@H]1CO | 17.0[16.7 µM] | -9.2
C[C@@H]1CN([C@@H](C)CO)C(=O)c2cc(-c3ccc(F)cc3)cnc2O[C@H]1CN(C)C(=O)Nc1ccc(F)cc1 | -1.8[16.7 µM] | -0.6
C[C@@H]1CN([C@H](C)CO)C(=O)Cc2cc(NC(=O)Nc3ccc4c(c3)OCO4)ccc2O[C@H]1CN(C)Cc1ccc2c(c1)OCO2 | 2.8[16.7 µM] | -2.8
Cc1noc(C)c1NC(=O)N(C)C[C@H]1Oc2ccc(NC(=O)NC3CCCCC3)cc2CC(=O)N([C@@H](C)CO)C[C@@H]1C | -6.8[16.7 µM] | -8.1
CN(C)C(=O)C[C@@H]1CC[C@H]2[C@@H](COC[C@H](O)CN2Cc2nccs2)O1 | 5.8[16.7 µM] | -8.2
CCCN(C)C[C@@H]1Oc2cc(C#Cc3ccccc3OC)ccc2S(=O)(=O)N([C@H](C)CO)C[C@@H]1C | 16.0[16.7 µM] | 0.6
COc1ccc(S(=O)(=O)Nc2cccc3c2O[C@@H](CN(C)S(=O)(=O)c2ccc(C)cc2)[C@H](C)CN([C@H](C)CO)C3=O)cc1 | 13.6[16.7 µM] | -22.0
COc1ccc(NC(=O)Nc2ccc3c(c2)C(=O)N([C@H](C)CO)C[C@H](C)[C@H](CN(C)C(=O)Nc2ccc4c(c2)OCO4)O3)cc1 | 12.6[16.7 µM] | 7.7
CN(C)C(=O)C[C@H]1CC[C@@H](NC(=O)C2CC2)[C@@H](CO)O1 | 11.6[16.7 µM] | -13.5
Cc1noc(C)c1NC(=O)N(C)C[C@@H]1Oc2ccc(NC(=O)Nc3ccc(F)cc3)cc2C(=O)N([C@H](C)CO)C[C@H]1C | -19.3[16.7 µM] | -13.0
COc1ccccc1-c1ccc([C@H]2[C@@H](CO)N(C(=O)C3CCC3)[C@H]2C#N)cc1 | -17.6[16.7 µM] | 9.6
CCCNC(=O)C[C@@H]1C[C@H]2c3cc(NC(=O)NC4CCCC4)ccc3O[C@H]2[C@@H](CO)O1 | -4.2[16.7 µM] | -6.9
C[C@H]1CN([C@@H](C)CO)S(=O)(=O)c2ccc(-c3cncnc3)cc2O[C@H]1CN(C)C(=O)c1ccc2c(c1)OCO2 | 4.8[16.7 µM] | -0.3
COc1ccc(CN(C)C[C@H]2Oc3ccc(NC(=O)Nc4ccc5c(c4)OCO5)cc3C(=O)N([C@@H](C)CO)C[C@@H]2C)cc1 | -10.4[16.7 µM] | 2.1
COc1ccc(S(=O)(=O)Nc2ccc3c(c2)C(=O)N([C@H](C)CO)C[C@@H](C)[C@@H](CN(C)S(=O)(=O)c2ccc(OC)cc2)OCCCC[C@H](C)O3)cc1 | -50.0[16.7 µM] | -12.1
Cc1noc(C)c1S(=O)(=O)Nc1ccc2c(c1)C(=O)N([C@@H](C)CO)C[C@H](C)[C@H](CN(C)CC1CC1)O2 | -1.4[16.7 µM] | 1.5
C[C@H](CO)N1C[C@H](C)[C@@H](CN(C)C(=O)Nc2ccc(F)cc2)Oc2ccc(NC(=O)Nc3ccc(C(F)(F)F)cc3)cc2C1=O | -56.0[16.7 µM] | 8.8
COc1ccc(S(=O)(=O)N(C)C[C@H]2Oc3ccc(NS(=O)(=O)c4ccc(F)cc4)cc3C(=O)N([C@H](C)CO)C[C@H]2C)cc1 | -20.0[16.7 µM] | 7.1
O=C(C[C@H]1C[C@H]2c3cc(NC(=O)CC4CC4)ccc3O[C@H]2[C@H](CO)O1)NCc1ccc2c(c1)OCO2 | 1.2[16.7 µM] | 13.3
C[C@@H]1CN([C@H](C)CO)C(=O)Cc2cc(NC(=O)Nc3ccc4c(c3)OCO4)ccc2O[C@@H]1CN(C)Cc1ccc(C(F)(F)F)cc1 | 28.6[16.7 µM] | 4.4
C[C@@H]1CN([C@H](C)CO)C(=O)Cc2cc(NS(=O)(=O)c3ccc(F)cc3)ccc2O[C@H]1CN(C)S(=O)(=O)c1ccc(F)cc1 | -5.5[16.7 µM] | 28.6
CC(=O)N[C@H]1CC[C@@H](CCNC(=O)C2CCCC2)O[C@@H]1CO | 14.5[16.7 µM] | -3.4
CCc1cnc(N2[C@@H](C#N)[C@@H](c3ccc(C#CCC4CCCC4)cc3)[C@@H]2CO)s1 | 23.7[16.7 µM] | -1.1
Cc1ccccc1-c1ccc2c(c1)O[C@H](CN(C)C(=O)C1CC1)[C@H](C)CN([C@H](C)CO)S2(=O)=O | 32.6[16.7 µM] | 7.6
CO[C@@H]1CN(C)C(=O)c2cc(NC(=O)c3ccccc3)ccc2OC[C@H](C)NC[C@@H]1C | -3.7[16.7 µM] | 4.8
C[C@H](CO)N1C[C@H](C)[C@H](CN(C)Cc2ccccc2)Oc2ccc(NC(=O)CCC(F)(F)F)cc2CC1=O | 17.4[16.7 µM] | -2.8
COc1ccc(-c2cnc3c(c2)C(=O)N([C@H](C)CO)C[C@@H](C)[C@@H](CN(C)C(=O)C2CCC2)O3)cc1 | -12.4[16.7 µM] | 0.9
C[C@H](CO)N1C[C@H](C)[C@@H](CN(C)C(=O)c2ccccc2F)Oc2cc(-c3ccc(F)cc3)ccc2S1(=O)=O | 16.7[16.7 µM] | 0.8
C[C@H]1CN([C@@H](C)CO)C(=O)Cc2cc(NS(=O)(=O)c3cccs3)ccc2O[C@H]1CN(C)Cc1ccncc1 | -5.1[16.7 µM] | -2.0
CC(C)NC(=O)N(C)C[C@H]1Oc2ccc(N(C)C)cc2C(=O)N([C@@H](C)CO)C[C@@H]1C | -1.6[16.7 µM] | 7.5
C[C@H](CO)N1C[C@H](C)[C@H](CN(C)S(=O)(=O)c2cccs2)Oc2ccc(NC(=O)C3CC3)cc2CC1=O | 28.6[16.7 µM] | 2.5
C[C@H](NC(=O)C[C@@H]1CC[C@H](NC(=O)CN2CCOCC2)[C@@H](CO)O1)c1ccccc1 | -2.4[16.7 µM] | -16.8
COCC(=O)N1C[C@@H](C)[C@H](OC)CN(C)C(=O)c2ccc(NC(=O)c3ccc(F)cc3)cc2OC[C@H]1C | 19.1[16.7 µM] | 0.5
O=C(Cc1cccnc1)N[C@H]1CC[C@@H](CCn2cc(Cc3ccccc3)nn2)O[C@H]1CO | -6.0[16.7 µM] | -9.8
Cc1noc(C)c1S(=O)(=O)Nc1ccc2c(c1)C(=O)N([C@H](C)CO)C[C@@H](C)[C@@H](CN(C)C(=O)Cc1ccccc1)OCCCC[C@@H](C)O2 | -53.2[16.7 µM] | 16.4
C[C@@H]1CN([C@@H](C)CO)C(=O)c2cc(NS(=O)(=O)c3cn(C)cn3)ccc2O[C@@H](C)CCCCO[C@H]1CN(C)C(=O)c1ccncc1 | -12.0[16.7 µM] | -6.4
Cc1noc(C)c1S(=O)(=O)Nc1ccc2c(c1)C(=O)N([C@@H](C)CO)C[C@@H](C)[C@@H](CN(C)C(=O)CCCN(C)C)OCCCC[C@H](C)O2 | -11.0[16.7 µM] | 18.1
COc1cccc(S(=O)(=O)N[C@H]2CC[C@@H](CC(=O)NC3Cc4ccccc4C3)O[C@H]2CO)c1 | 8.6[16.7 µM] | 1.6
C[C@H](CO)N1C[C@H](C)[C@@H](CN(C)S(C)(=O)=O)Oc2ncc(C#Cc3ccccc3F)cc2C1=O | -4.6[16.7 µM] | -4.2

Rewritten with the structure last: part of the list above
HIV Env fusion | Yeast UUG start | canonical_smiles
28.6[16.7 µM] | 4.4 | C[C@@H]1CN([C@H](C)CO)C(=O)Cc2cc(NC(=O)Nc3ccc4c(c3)OCO4)ccc2O[C@@H]1CN(C)Cc1ccc(C(F)(F)F)cc1
-5.5[16.7 µM] | 28.6 | C[C@@H]1CN([C@H](C)CO)C(=O)Cc2cc(NS(=O)(=O)c3ccc(F)cc3)ccc2O[C@H]1CN(C)S(=O)(=O)c1ccc(F)cc1

A run of entries from further up, for reference:
SMILES | HIV Env fusion | Yeast UUG start
COc1cccc(-c2ccc3c(c2)O[C@H](CN(C)C(=O)C2CC2)[C@H](C)CN([C@H](C)CO)S3(=O)=O)c1 | 3.3[16.7 µM] | 2.2
COc1ccc(CN(C)C[C@H]2Oc3c(NC(=O)C4CCCCC4)cccc3C(=O)N([C@H](C)CO)C[C@@H]2C)cc1 | 6.5[16.7 µM] | 8.4
COc1ccc(C(=O)Nc2ccc3c(c2)OC[C@@H](C)N(C)C[C@H](C)[C@H](OC)CN(C)C3=O)cc1 | 1.7[16.7 µM] | 2.7
O=C(CN1CCOCC1)NCC[C@@H]1CC[C@H](NC(=O)Cc2ccccn2)[C@@H](CO)O1 | -14.2[16.7 µM] | 1.5

New compounds follow
SMILES | HIV Env fusion | Yeast UUG start
C[C@H](CO)N1C[C@H](C)[C@H](CN(C)C(=O)Nc2ccc(C(F)(F)F)cc2)Oc2c(NC(=O)NC3CCCCC3)cccc2C1=O | 8.8[16.7 µM] | -8.0
COc1ccc(NC(=O)Nc2ccc3c(c2)C(=O)N([C@H](C)CO)C[C@@H](C)[C@H](CN(C)S(=O)(=O)c2ccccc2)OCCCC[C@H](C)O3)cc1 | -18.6[16.7 µM] | -5.3
C[C@@H]1CCCCO[C@H](CN(C)C(=O)Nc2ccc3c(c2)OCO3)[C@@H](C)CN([C@@H](C)CO)C(=O)c2cc(N(C)C)ccc2O1 | 16.5[16.7 µM] | 2.8
O=C(C[C@@H]1C=C[C@H](NS(=O)(=O)c2ccccc2)[C@H](CO)O1)NCc1ccccc1F | 48.1[16.7 µM] | 2.1
O=C(N[C@H]1CC[C@@H](CC(=O)N2CCc3ccccc3C2)O[C@@H]1CO)C1CC1 | -5.8[16.7 µM] | -12.4
